Insulin prom inh: TRM-6 insulin promoter activity inhibition | TRM-6 cells (human fetal islet line), insulin promoter-eGFP reporter, imaging; reporter expression induced with tamoxifen | inhibition, % at 2 µM | AID 1273 | actives 0.9% (n = 130,000);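 active means inhibition above the mean plus 3 SD, with well images judged a real hit on visual review, cut at about 60% in these data, passing the limit was not always enough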
GALR2 ag: GALR2 (human) receptor agonism. O43603. GALR2-expressing cells, agonist activation read-out. activation, %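 (tested at 5 µM)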. actives 0.48% (n = 140,000);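 active means above mean plus 3 SD of all compounds, about 5% in these data, not always enough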;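 further: 0% = vehicle buffer wells and 100% = reference agonist at full effect; tested in CHO reporter cells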
Target sequence (O43603 whole entry, looked up): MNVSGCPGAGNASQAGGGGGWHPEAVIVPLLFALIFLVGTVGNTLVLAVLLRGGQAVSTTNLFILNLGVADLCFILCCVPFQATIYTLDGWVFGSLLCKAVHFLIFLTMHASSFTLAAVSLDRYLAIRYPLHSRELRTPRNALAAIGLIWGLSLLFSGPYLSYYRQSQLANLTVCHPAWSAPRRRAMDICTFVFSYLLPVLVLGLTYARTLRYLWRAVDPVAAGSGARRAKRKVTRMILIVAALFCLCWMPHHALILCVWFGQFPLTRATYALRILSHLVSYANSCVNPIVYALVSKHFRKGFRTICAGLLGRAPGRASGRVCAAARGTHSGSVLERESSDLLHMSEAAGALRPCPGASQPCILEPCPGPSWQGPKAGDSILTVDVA
RGS16-Gao: modulates binding between human RGS16 and Galphao; actives 0.38% (n = 220,000); AID 1441; binding response (% of control), % at 10 µM; bead-based flow cytometry RGS16-Galphao binding, fluorescence; actives lie on both sides;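 active means below 25% or above 175%, edge rows of some plates excepted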;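 further: Galphao activated by GDP with aluminum fluoride before binding; 100% = wells without compound and 0% = beads without RGS; some results beyond the cut were filed as inactive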
Target sequence (O15492 whole entry, looked up): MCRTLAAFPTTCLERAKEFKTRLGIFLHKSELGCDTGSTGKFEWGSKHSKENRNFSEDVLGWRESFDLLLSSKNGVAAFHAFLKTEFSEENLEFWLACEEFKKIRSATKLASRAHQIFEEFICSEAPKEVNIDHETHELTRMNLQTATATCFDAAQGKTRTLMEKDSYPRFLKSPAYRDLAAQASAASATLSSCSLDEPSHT
Target sequence (P09471 whole entry, looked up): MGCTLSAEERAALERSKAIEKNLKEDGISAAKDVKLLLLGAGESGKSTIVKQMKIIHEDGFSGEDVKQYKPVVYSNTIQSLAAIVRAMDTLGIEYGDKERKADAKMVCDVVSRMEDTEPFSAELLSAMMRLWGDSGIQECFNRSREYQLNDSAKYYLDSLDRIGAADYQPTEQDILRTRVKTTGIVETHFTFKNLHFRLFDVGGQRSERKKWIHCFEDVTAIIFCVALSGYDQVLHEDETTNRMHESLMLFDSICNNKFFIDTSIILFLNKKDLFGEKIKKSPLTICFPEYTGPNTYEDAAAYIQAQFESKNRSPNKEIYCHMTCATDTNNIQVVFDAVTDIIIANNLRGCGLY
PKD1 kinase inh: PKD1 (human) kinase inhibition. PKD1 kinase fluorescence polarization assay. inhibition, %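 (about 10 µM by stock and volumes)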. actives 0.056% (n = 200,000). AID 797;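 active means inhibition of 50% or more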;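 further: controls were vehicle for no effect and a reference inhibitor for full effect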
HSV replic up: HSV replication enhancement; AID 1956; actives 0.005% (n = 220,000); HSV replication augmentation in cells, fold increase; maximum fold increase;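 active means peak rise of 1.5-fold or more in the series; tested in PC3 cells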;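 further: first round at 10 µM; read as green reporter fluorescence; hits show the peak of a series up to 25 µM; 1 = signal of infected wells without compound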
Insulin prom inh cell count: second read-out of Insulin prom inh, no call of its own (marks repeat the call); normalized cell count, %; measured here: cell count, toxicity; reference of the scale not given here;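 cells exposed to compound for 48 h; stained nuclei by imaging scaled within each plate; lower means fewer cells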
HSV replic up primary fold: also measured in HSV replic up; calls as there; fold increase; compound at 10 µM; measured here: primary screen fold increase 10 uM; tested in PC3 cells;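 GFP signal in the first replicate; 1 = infected wells without compound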
* hit, by the source's call; i = inactive; · = no result given. Rows are unselected; overall some 1.3% were active at least once.

SMILES | Insulin prom inh | Insulin prom inh cell count | GALR2 ag | RGS16-Gao | PKD1 kinase inh | HSV replic up | HSV replic up primary fold
Cc1ccc(S(=O)(=O)N/N=c2\oc3ccccc3cc2C(=O)Nc2cccc(C)c2)cc1 | -11 | 74 | 0.1 | 99 | -2 | i | 0.93
COc1cccc(NC(=O)C2CCN(Cc3cnn(-c4ccccc4)c3-n3cccc3)CC2)c1 | 21 | 115 | -2.3 | 107 | -5 | i | 1
COc1ccc(CNC(=O)c2cc3c(=O)n4ccccc4nc3n(Cc3cccnc3)c2=N)cc1 | -108 | 134 | -0.9 | 109 | 1 | i | 0.96
C=C(C)c1cccc(C(C)(C)NC(=O)NC(c2ccccc2)c2ccc(OC)cc2)c1 (centres undefined) | -90 | 77 | -1.0 | 102 | 0 | i | 1.1
COc1ccc(Cl)cc1N1C(=O)[C@@H]2C(c3cccc(OC)c3OC)=NO[C@@H]2C1=O | · | · | 0.2 | 122 | 7 | i | 0.94
Nc1ccccc1C#Cc1ccccc1 | -34 | 103 | -1.9 | 103 | -4 | i | 0.91
CC(C)(C)c1cc(NC(=O)C2CCCO2)no1 (centres undefined) | 29 | 133 | -1.0 | 104 | -11 | i | 1.1
Cc1cc(C(=O)O)ccc1-c1ccc(/C=C2\NC(=O)N(Cc3ccc(F)cc3)C2=O)o1 | · | · | · | 99 | · | i | 1
O=C(NCc1ccc2c(c1)OCO2)c1ccccc1 | · | · | · | 99 | -14 | i | 0.94
CS(=O)(=O)Nc1ccccc1C(=O)N1CCCC1 | 14 | 119 | -0.3 | 107 | 5 | i | 1
Cc1cc(C)nc(SCc2ccc(C(=O)N/N=C/c3ccco3)cc2)n1 | · | · | · | 96 | 2 | i | 1.1
CCOc1ccc(S(=O)(=O)N(C)c2ccc(OCC(=O)N3CCOCC3)cc2)cc1 | 10 | 113 | -0.2 | 100 | -3 | i | 1.3
COC(=O)c1ccc(N/C(=N/S(=O)(=O)c2ccccc2)c2ccccc2)cc1 | · | · | 0.3 | 75 | -7 | i | 0.94
O=C(CSc1nnc(-c2n[nH]c3ccccc23)n1-c1ccccc1)Nc1cccc(Cl)c1 | · | · | 0.1 | 105 | 6 | i | 0.94
COC(=O)c1ccc(COC(=O)CNS(=O)(=O)c2ccccc2)cc1 | · | · | · | 105 | 3 | i | 0.95
O=C(CCl)NNc1cccc(Cl)n1 | 65 | 66 | -1.3 | 93 | 4 | i | 0.88
O=C1CN(c2nnnn2-c2ccccc2)CCN1 | · | · | -2.3 | 106 | -1 | i | 0.93
COCCN1C(=O)c2oc3cc(C)c(C)cc3c(=O)c2C1c1cccc(O)c1 (centres undefined) | 22 | 95 | -2.7 | · | 3 | i | 0.81
CCOC(=O)c1sc(N)c(C#N)c1COC(=O)CNC(=O)c1cc(OC)c(OC)c(OC)c1 | -37 | 145 | -1.6 | 92 | -7 | i | 0.92
Cc1csc(NC(=O)C2CCCO2)n1 (centres undefined) | 64 | 102 | -2.3 | 62 | -8 | i | 0.91
Cc1cnc(NC(=O)Cc2cccs2)s1 | · | · | · | 116 | 5 | i | 0.96
O=C(Nc1cccc(Cl)c1)N1CCC(CO)(CCOc2ccccc2)CC1 | · | · | · | 111 | -4 | i | 0.86
Cc1ccc(S(=O)(=O)N/N=C\c2ccc([N+](=O)[O-])o2)cc1 | -17 | 106 | -2.5 | 96 | -1 | i | 0.98
COC(=O)C1=CN(Cc2cccs2)C=C(C(=O)OC)C1c1cccc(Cl)c1 | · | · | · | 102 | 6 | i | 0.95
CCCC(=O)Nc1ccc(C=C(C(C)=O)C(C)=O)cc1 | · | · | · | 103 | · | i | 1

Carrying on:
SMILES | Insulin prom inh | Insulin prom inh cell count | GALR2 ag | RGS16-Gao | PKD1 kinase inh | HSV replic up | HSV replic up primary fold
CCCc1nc2oc(C(=O)c3ccccc3)c(N)c2c2c1COC(C)(C)C2 | 9 | 106 | -0.5 | 109 | -2 | i | 0.89
O=C(COc1ccc(Cl)cc1Cl)NC(=S)Nc1ccccc1C(=O)O | · | · | · | 110 | -8 | i | 0.97
C=CCn1c(SCc2nc3ccccc3nc2C)nnc1-c1ccoc1C | 21 | 91 | -1.4 | 103 | -10 | i | 1.1
O=C(CSc1nnc(-c2ccccc2)n1-c1ccccc1)c1ccc[nH]1 | · | · | -1.6 | 48 | -6 | i | 1.1
C/C=C/C(=O)Nc1cccc(C2=NOC3(C2)C[C@@H](C(N)=O)N(C(=O)c2cc([N+](=O)[O-])cc([N+](=O)[O-])c2)C3)c1 (some centres undefined) | · | · | · | 106 | · | i | 0.84
O=C(CCc1nnc(C2CCCCC2)o1)N1CCN(C2CCCCC2)CC1 | · | · | · | 99 | 2 | i | 1.1
O=C(/C=C/c1cccc([N+](=O)[O-])c1)N1CCN(S(=O)(=O)c2cccs2)CC1 | 21 | 75 | · | 102 | -3 | i | 0.86
O=C(Oc1ccc2c(=O)c(Cl)coc2c1)c1cccnc1 | 38 | 36 | -2.6 | 98 | -10 | i | 0.98
COc1ccc(/C=N/NC(=O)c2ccc3ccccc3c2)cc1OS(=O)(=O)c1ccc(NC(C)=O)cc1 | · | · | -1.3 | 99 | -1 | i | 0.59
Cc1ccc(S(=O)(=O)N(CC(O)CN2CCOCC2)c2cc(Cl)ccc2Cl)cc1 (centres undefined) | -43 | 171 | -1.0 | 104 | -4 | i | 0.92
CCOC(=O)c1nc(Nc2ccc(C(C)=O)cc2)c2ccccc2n1 | · | · | · | 100 | -1 | i | 1.1
Cc1ccc(-c2ccc(/C=C/C(=O)c3ccccc3)o2)cc1 | -43 | 66 | -1.6 | 157 | -19 | i | 0.99
O=C1OC(C(=O)Nc2ccccc2)Cc2ccccc21 (centres undefined) | -78 | 131 | · | 104 | -1 | i | 0.91
CCn1nc(C(=O)Nc2ccccc2C)c(Cl)c1Cl | 0 | 95 | -1.6 | 102 | -3 | i | 1.1
O=C(NCc1ccccn1)C12CC3CC(CC(C3)C1)C2 | · | · | · | 105 | 1 | i | 1.1
O=C(OCCCCN1C(=O)c2ccccc2C1=O)c1n[nH]c2ccccc12 | -22 | 217 | 0.1 | 92 | -3 | i | 0.95
S=c1[nH]ccn1Cc1ccccc1 | · | · | · | 95 | 1 | i | 0.96
S=C(Nc1ccc2[nH]ccc2c1)NC1CCCCC1 | · | · | · | 102 | · | i | 0.94
COc1ccc(CCN(C)CCCC(C#N)(c2cc(OC)c(OC)c(OC)c2)C(C)C)cc1OC (centres undefined) | -5 | 108 | -1.6 | 102 | -6 | i | 0.81
CCn1nc(NS(=O)(=O)c2ccccc2)c2cc3cccc(C)c3nc21 | 19 | 169 | -0.2 | 102 | -1 | i | 0.92
Cc1ccc(CCNS(=O)(=O)c2ccc(C)cc2)cc1 | 7 | 130 | -2.3 | 104 | 2 | i | 1
C/C(Cn1nnc([N+](=O)[O-])n1)=N\NC(=O)c1cccc(Cl)c1 | · | · | -3.9 | 104 | 0 | i | 0.76
N#C/C(=C\c1ccc(-c2nc3ccccc3s2)o1)C(N)=O | · | · | · | 100 | · | i | 1.1
CC(=O)c1cccc(NC(=S)NC(=O)c2cccc(C)c2)c1 | -24 | 158 | 0.7 | 108 | 5 | i | 0.94
CCCC(=O)N1CCN(c2ccc(NC(=O)c3cccs3)cc2Cl)CC1 | 10 | 122 | · | 113 | -1 | i | 0.71

Next section.
SMILES | Insulin prom inh | Insulin prom inh cell count | GALR2 ag | RGS16-Gao | PKD1 kinase inh | HSV replic up | HSV replic up primary fold
COc1cc2c(cc1OC)CN(Cc1ccc(C)s1)CC2 | -61 | 83 | -2.4 | 106 | -5 | i | 0.98
O=C1c2oc3ccc(Br)cc3c(=O)c2C(c2cccc(F)c2)N1CCO (centres undefined) | · | · | -0.2 | 107 | -7 | i | 0.77
Cc1nc2c(-c3ccccc3)c(C)nn2c(C)c1CCC(=O)N1CCOCC1 | · | · | -0.2 | 102 | -6 | i | 0.73
Cc1nc2sc(C#N)c(N)c2c2c1CCCC2 | 55 | 96 | -1.3 | 100 | 12 | i | 0.91
CC(C)OCCCN1C(=O)c2[nH]nc(-c3ccccc3O)c2C1c1cccc(Cl)c1 (centres undefined) | · | · | -2.8 | 96 | 2 | i | 0.79
Cn1c2ccccc2c2nn(-c3ccccc3)c(=O)cc21 | 23 | 95 | 0.3 | 97 | -4 | i | 0.69
COc1ccc(N2CCN(C(=O)CSc3nnc(NC(=O)C4CCC4)s3)CC2)cc1 | · | · | · | 100 | -5 | i | 0.86
O=C(c1ccco1)N1CCN(C(c2ccccc2)c2nnnn2C2CCCC2)CC1 (centres undefined) | -300 | 70 | -0.8 | 95 | -2 | i | 0.85
CC(c1ccccc1)N1CCN(C(=O)CCl)CC1 (centres undefined) | · | · | · | 97 | -2 | i | 0.84
N#CCCn1cc(C(=O)N2CCCCC2)c(-c2ccc([N+](=O)[O-])cc2)n1 | · | · | · | 101 | -3 | i | 0.98
CCOc1ccc(C(=O)NC(C)C2COc3ccccc3O2)cc1 (centres undefined) | · | · | · | 113 | 3 | i | 1.1
O=C(NCc1nnc(SCC(=O)N2CCCCCC2)o1)c1ccco1 | -40 | 163 | -0.2 | 103 | 0 | i | 0.98
NC(=O)c1ccccc1NC(=O)Nc1cccc(Cl)c1Cl | -6 | 57 | -1.6 | 28 | -7 | i | 0.95
CN=c1scc(-c2ccc(Cl)cc2)n1C | · | · | -2.4 | 103 | 0 | i | 0.98
COc1ccc(S(=O)(=O)Nc2ccccc2C(=O)OC2CCCN(C)C2)cc1OC (centres undefined) | · | · | -1.4 | 120 | 2 | i | 1
COc1ccc(C2C(C(C)=O)=C(O)C(=O)N2c2ccc(Br)cn2)cc1 (centres undefined) | · | · | -0.3 | 102 | -3 | i | 1
CCOC(=O)c1cc2c(C)n(-c3ccc(OCC)cc3)c(C)c2ccc1=O | -11 | 94 | -0.2 | 72 | -2 | i | 0.81
CCOC(=O)c1c(NC(=O)CSc2nnc(-c3c[nH]c4ccccc34)n2C)sc2c1CCCC2 | 7 | 104 | -1.2 | 90 | -3 | i | 0.77
CN1CCN(Cc2c(C#N)c3ccccc3n2C)CC1 | 23 | 119 | -1.1 | 99 | -11 | i | 0.8
CCC(C)NC(=O)C(CCSC)NC(=O)c1ccccc1 (centres undefined) | -23 | 51 | -2.3 | 94 | -3 | i | 0.98
CCOC(=O)C1=C(C)OC(N)=C(C#N)C1c1cc2ccccc2nc1N1CCCCC1 (centres undefined) | 61 | 81 | 0.1 | 97 | -12 | i | 1.1
COc1cc2c(cc1OC)-c1cc(NC3CCCCCCC3)nc(=O)n1CC2 | · | · | 1.1 | 104 | 8 | i | 0.78
CCCn1nc(C(=O)OCC(=O)Nc2cccc(S(N)(=O)=O)c2)c2ccccc2c1=O | · | · | · | 95 | 2 | i | 0.97
CCN(CC)S(=O)(=O)c1ccc(-c2nnc(SCC(=O)Nc3nc(C)cs3)o2)cc1 | 0 | 42 | -1.0 | 97 | -7 | i | 0.79
Cc1cc(C(=O)OCC(=O)c2c(N)n(C)c(=O)n(C)c2=O)c(C)o1 | · | · | -0.6 | 106 | 4 | i | 0.93
CCOC(=O)c1cn2cccnc2n1 | 3 | 70 | -1.3 | 98 | 1 | i | 1
COc1cccc(NC(=O)CCNS(=O)(=O)c2cccc3nsnc23)c1 | -5 | 60 | · | 111 | 1 | i | 1
O=C(Cc1n[nH]c(=O)c2ccccc12)N1CCN(c2ccc(F)cc2)CC1 | 64 | 40 | · | 102 | 9 | i | 0.88
O/N=C/c1ccccc1OCc1ccccc1Cl | -48 | 163 | -1.5 | 105 | 2 | i | 0.86
COc1cc2nc(CN(C)Cc3ccc(Cl)cc3)[nH]c(=O)c2cc1OC | · | · | · | 100 | -4 | i | 0.82
